Screening results: PubChem, several laboratories
AF4-AF9 inh = MLL-AF4/AF9 protein interaction inhibition | P42568 | AlphaScreen, biotin-AF4 peptide binding to FLAG-AF9 | inhibition, % at 10 µM | 0.47% of 350,000 active | AID 651704;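 active = every replicate reaching a set inhibition limit, whatever the replicate mean, cut at about 25% in these data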;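 also: 0% = plate neutral control median and 100% = total signal loss; the record names both 10 and 1 µM as test concentration; the first replicate is given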
Target sequence (P42568 whole entry, looked up): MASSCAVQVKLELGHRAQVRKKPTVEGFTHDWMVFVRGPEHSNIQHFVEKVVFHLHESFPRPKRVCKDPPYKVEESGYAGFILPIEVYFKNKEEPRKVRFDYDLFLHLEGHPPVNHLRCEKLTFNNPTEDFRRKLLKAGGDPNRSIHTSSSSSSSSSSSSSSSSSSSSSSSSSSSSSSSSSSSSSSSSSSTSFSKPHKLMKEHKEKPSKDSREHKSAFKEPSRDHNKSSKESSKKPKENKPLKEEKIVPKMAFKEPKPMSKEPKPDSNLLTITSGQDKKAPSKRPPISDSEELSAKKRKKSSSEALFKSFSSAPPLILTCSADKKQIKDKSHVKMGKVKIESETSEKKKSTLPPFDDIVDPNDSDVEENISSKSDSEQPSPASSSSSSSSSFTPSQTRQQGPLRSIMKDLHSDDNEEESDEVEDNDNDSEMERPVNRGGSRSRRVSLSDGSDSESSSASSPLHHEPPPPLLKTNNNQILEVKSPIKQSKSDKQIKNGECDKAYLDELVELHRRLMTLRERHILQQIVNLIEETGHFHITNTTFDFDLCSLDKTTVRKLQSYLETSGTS
E coli growth = inhibitors of Escherichia coli growth; AID 1053175; OD600, 23 h; hits give low values; 0.21% of 330,000 active; OD600 absorbance (test concentration not listed);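 active = OD600 absorbance below the run mean of sample wells minus 3.6 SD, in any replicate, cut at about 0.56 in these data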;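 also: stock transfer was 300 nL into about 60 µL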
HNF4A DNA FP = change in binding of human HNF4 alpha to DNA; activity change, % at 10 µM; 0.3% of 360,000 active; P41235; HNF4a-FITC DNA binding, fluorescence polarization, 1 h; in the data active = activity change above about 30%, passing the limit was not always enough;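 also: controls were the assay level and a saturating level of protein; the project sought stronger binding though the title names inhibitors; some compounds called inactive have numbers as strong as hits; positive values seem to mean higher polarization but the record does not say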
ALR H2O2 inh = human ALR oxidase inhibition via reduced H2O2 | P55789 | inhibition, % (no concentration beside the values) | purified ALR, DTT oxidation, H2O2 HRP-luminol luminescence | 3.8% of 290,000 active;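 active = mean and each replicate at 75% or more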;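 also: stock transfer was 7.5 nL into about 7.5 µL; 0% = neutral wells and 100% = wells with inactivated enzyme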
Target sequence (P55789 whole entry, looked up): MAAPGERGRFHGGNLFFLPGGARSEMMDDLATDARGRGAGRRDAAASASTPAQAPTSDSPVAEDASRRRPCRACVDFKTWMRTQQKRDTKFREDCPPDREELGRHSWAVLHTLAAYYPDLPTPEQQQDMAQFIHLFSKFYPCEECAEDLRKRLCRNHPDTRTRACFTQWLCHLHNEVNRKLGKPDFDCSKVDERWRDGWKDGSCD
FGF22 binding = binders of recombinant human FGF22 by thermal shift; Q9HCT0; 1.5% of 340,000 active; SYPRO orange fluorescence; percent of sucrose octasulfate shift, DMSO zero; calls only at 9.99 µM;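 active = melting point raised past a set limit in the mean and every replicate; three in four hits are not shown here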
Target sequence (Q9HCT0 whole entry, looked up): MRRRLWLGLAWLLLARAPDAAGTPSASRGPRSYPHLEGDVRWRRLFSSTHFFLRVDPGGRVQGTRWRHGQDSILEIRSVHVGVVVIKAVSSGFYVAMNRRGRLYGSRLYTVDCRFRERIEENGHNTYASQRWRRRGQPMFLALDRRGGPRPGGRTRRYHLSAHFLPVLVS
rRNA inh HTS = selective bacterial rRNA inhibition in E. coli; E. coli WT GFP vs humanized-ribosome RFP mutants, fluorescence, 24 h; hits give low values; DMSO median 0, no signal -100; GFP signal change (wild-type ribosome), % (test concentration not listed); 1.6% of 350,000 active;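 active = significant combined selectivity score with lowered wild-type GFP, culture density cut under 30%, mutant RFP and density less affected; inactive = any of these conditions unmet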; also: one replicate is shown; some compounds called inactive have numbers as strong as hits
Vif TR-FRET = HIV-1 Vif–A3G interaction blockers – biochemical, TR-FRET, GST-Vif 1-94, biotin-A3G peptide, dose response retest, primary screen (AID 1117319); TR-FRET GST-Vif / biotin-A3G peptide binding; higher % means a stronger effect; test concentration not given here; strong numbers were not always called active; one-dose inhibition, %; IC50 in µM for titrated hits; 0.57% of 260,000 active;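 active = above the screen mean plus three standard deviations and confirmed in dose response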;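 also: Vif residues 1-94 fused to GST binding biotinylated APOBEC3G peptide 110-148; 0% = full assay without inhibitor and 100% = GST in place of GST-Vif; retest series ran down from 100 µM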
rRNA inh HTS OD600 = also measured in rRNA inh HTS; calls as there; OD600 change, %; measured here: OD600 growth;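 optical density of the mix in the first replicate; 0 = DMSO median and -100 = no signal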
rRNA inh HTS RFP = second read-out of rRNA inh HTS, no call of its own (marks repeat the call); RFP signal change, %; measured here: RFP humanized mutant strains;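 first replicate; 0 = DMSO median and -100 = no signal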
The depositor's hits bear a star; & = joins results of further samples. A portion of the library; the hit share may differ from the screen's.

COc1ccc(-c2noc(N3CCCC(C(=O)Nc4ccc(C(C)=O)cc4)C3)n2)cc1 (stereo not drawn) was read as AF4-AF9 inh -1.7, E coli growth 0.7, HNF4A DNA FP 0.2, ALR H2O2 inh -4, FGF22 binding inactive, rRNA inh HTS 6, rRNA inh HTS OD600 12 and rRNA inh HTS RFP 0.4.
For O=C(Nc1ccccc1C(F)(F)F)C1CCN(C(=O)c2cccs2)CC1 the results were AF4-AF9 inh 0.8, E coli growth 0.66, HNF4A DNA FP 3.6, ALR H2O2 inh -7 and FGF22 binding inactive.
For CCC(C(=O)NC1CCCCC1)n1c(SCc2cccc(F)c2)nc2ccncc21 (stereo not drawn) the results were AF4-AF9 inh -6.4, E coli growth 0.73, HNF4A DNA FP 2.1, ALR H2O2 inh -3, FGF22 binding inactive, rRNA inh HTS 5, Vif TR-FRET 4%, rRNA inh HTS OD600 -8 and rRNA inh HTS RFP 24.
Screening CC(=N\NC(=O)c1cc(Br)ccc1O)/C(=N/O)C(=O)Nc1ccccc1 returned AF4-AF9 inh 0.0, HNF4A DNA FP 1.7, ALR H2O2 inh 86*, FGF22 binding inactive, rRNA inh HTS -56, rRNA inh HTS OD600 -80 and rRNA inh HTS RFP -22.
For CCOC(=O)c1cc(C(O)(C(F)(F)F)C(F)(F)F)c(/N=C/N(C)C)o1 the results were HNF4A DNA FP -0.1, ALR H2O2 inh 5 and Vif TR-FRET 2%.
Screening CCOC(=O)C1=CCN(S(=O)(=O)c2ccccc2C(=O)OC)C1c1ccc(Cl)cc1 (stereo not drawn) returned AF4-AF9 inh -2.9, HNF4A DNA FP -1.5, FGF22 binding inactive, rRNA inh HTS -3, rRNA inh HTS OD600 -21 and rRNA inh HTS RFP -9.3.
`Cc1ccc2c(CN3CCCCC3C)cc(=O)oc2c1` (stereo not drawn) gave AF4-AF9 inh -0.6, E coli growth 0.65, HNF4A DNA FP -2.0, ALR H2O2 inh 31, FGF22 binding inactive, rRNA inh HTS 2, Vif TR-FRET -5%, rRNA inh HTS OD600 -1 and rRNA inh HTS RFP 1.4.
For COc1ccc(NC(=O)N2CCCCN3[C@@H](CO)[C@H](c4ccc(C5=CCCCC5)cc4)[C@@H]3C2)cc1 the results were AF4-AF9 inh 21, FGF22 binding inactive, rRNA inh HTS -60, rRNA inh HTS OD600 -70 and rRNA inh HTS RFP -14.
Screening O=C(NC1CCS(=O)(=O)C1)c1ccc(-c2ccc(Br)cc2)o1 (stereo not drawn) returned E coli growth 0.69, HNF4A DNA FP 7.0, ALR H2O2 inh 46 and Vif TR-FRET -7%.
Screening Cc1nc2ccc(S(=O)(=O)NC(C(=O)N3CCC(C)CC3)C(C)C)cc2s1 (stereo not drawn) returned AF4-AF9 inh 1.3, E coli growth 0.74, HNF4A DNA FP 2.2, ALR H2O2 inh 32, FGF22 binding inactive, rRNA inh HTS 2, Vif TR-FRET 70%, rRNA inh HTS OD600 0 and rRNA inh HTS RFP 0.2.
For C[C@@H]1CN([C@@H](C)CO)C(=O)c2cccc(NC(=O)c3ccc(-c4nccs4)cc3)c2O[C@H]1CN(C)Cc1ccc(Cl)c(Cl)c1 the results were AF4-AF9 inh 2.7, FGF22 binding inactive, rRNA inh HTS 2, rRNA inh HTS OD600 2 and rRNA inh HTS RFP 0.7.
COC(=O)C[C@H]1CC[C@H](NS(=O)(=O)c2cn(C)cn2)[C@@H](CO)O1 was read as AF4-AF9 inh 3.0, HNF4A DNA FP 10, FGF22 binding inactive, rRNA inh HTS 12, rRNA inh HTS OD600 17 and rRNA inh HTS RFP 0.5.
Screening O=C(c1ccc(N2C(=O)C3CCCCC3C2=O)cc1)N1CCCCC1 (stereo not drawn) returned E coli growth 0.72, HNF4A DNA FP -3.3, ALR H2O2 inh 3 and Vif TR-FRET 2%.
COc1ccc(CC(=O)OCC(=O)NCc2ccc(C)cc2)cc1OC was read as AF4-AF9 inh 0.1, E coli growth 0.71, HNF4A DNA FP 1.5, ALR H2O2 inh -15, rRNA inh HTS -5, Vif TR-FRET -3%, rRNA inh HTS OD600 0 and rRNA inh HTS RFP 3.4.
`O=C(NCCCO)c1cc([N+](=O)[O-])cc2c1C=Cc1ccccc1O2` gave AF4-AF9 inh 2.7, E coli growth 0.73, HNF4A DNA FP 0.1, ALR H2O2 inh -44, FGF22 binding inactive, rRNA inh HTS 3, rRNA inh HTS OD600 -7 and rRNA inh HTS RFP 0.1.
CCOc1ccccc1OCCOc1ccccc1OC(C)C was read as E coli growth 0.79, HNF4A DNA FP -3.3, ALR H2O2 inh -6 and Vif TR-FRET 1%.
Screening CCC(=O)NC(c1cccc([N+](=O)[O-])c1)c1c(O)ccc2ccccc12 (stereo not drawn) returned AF4-AF9 inh -1.7, E coli growth 0.68, HNF4A DNA FP 1.7, ALR H2O2 inh -7, FGF22 binding inactive, rRNA inh HTS 0, Vif TR-FRET 3%, rRNA inh HTS OD600 8 and rRNA inh HTS RFP 1.9.
COc1ccccc1N1CCN(Cc2cc(=O)n3ccsc3n2)CC1 was read as E coli growth 0.64, HNF4A DNA FP -0.1, ALR H2O2 inh 90* and Vif TR-FRET 4%.
For C/C(Cl)=C\CNC(C)c1ccccc1 (stereo not drawn) the results were E coli growth 0.73, HNF4A DNA FP -1.6, ALR H2O2 inh 1 and Vif TR-FRET -1%.
For CCCCSc1nnc(-c2c[nH]c3ccccc23)n1C the results were AF4-AF9 inh -3.8, E coli growth 0.76, HNF4A DNA FP -3.6, ALR H2O2 inh -2, FGF22 binding inactive, rRNA inh HTS -2, Vif TR-FRET -9%, rRNA inh HTS OD600 2 and rRNA inh HTS RFP 0.2.
`O=C(Nc1ccc2oc(-c3ccncc3)nc2c1)c1ccco1` gave AF4-AF9 inh -0.6, E coli growth 0.69, HNF4A DNA FP 0.9, ALR H2O2 inh -8, FGF22 binding inactive, rRNA inh HTS 0, rRNA inh HTS OD600 7 and rRNA inh HTS RFP 0.8.
CCCCn1c(=O)[nH]c(=O)c2c1nc(COc1ccc(C#N)cc1)n2CCC was read as E coli growth 0.72, HNF4A DNA FP -1.9, ALR H2O2 inh -5 and Vif TR-FRET -4%.
For O=C(Nc1cccc(C(F)(F)F)c1)C1CCCCC1 the results were E coli growth 0.68, HNF4A DNA FP -1.4, ALR H2O2 inh -1 and Vif TR-FRET -6%.
Screening N/C(=N\OC(=O)c1cnn(-c2ccccc2)c1C(F)(F)F)c1ccc(C(F)(F)F)cc1 returned AF4-AF9 inh 2.1, E coli growth 0.69, HNF4A DNA FP 2.4, ALR H2O2 inh -3, FGF22 binding inactive, rRNA inh HTS 8, Vif TR-FRET -11%, rRNA inh HTS OD600 4 and rRNA inh HTS RFP 1.9.
COc1ccccc1NCC(=O)N/N=C(\C)c1cccs1 was read as AF4-AF9 inh 2.1, HNF4A DNA FP 1.1, ALR H2O2 inh 30, FGF22 binding inactive, rRNA inh HTS 10, Vif TR-FRET 15%, rRNA inh HTS OD600 10 and rRNA inh HTS RFP 1.7.
O=C(C(=C1NCCN1)n1cncn1)c1ccccc1 was read as E coli growth 0.66, HNF4A DNA FP 3.2, ALR H2O2 inh -4 and Vif TR-FRET -6%.
Screening Cc1ccccc1N1CCN(S(=O)(=O)Cc2ccccc2)CC1 returned E coli growth 0.68, HNF4A DNA FP 1.6, ALR H2O2 inh -3 and Vif TR-FRET -5%.
Screening C[C@H](CO)N1C[C@H](C)[C@@H](CN(C)S(=O)(=O)c2ccc(F)cc2)Oc2ccc(NC(=O)Cc3ccccc3)cc2C1=O returned AF4-AF9 inh 0.0&0.7, E coli growth 0.77, HNF4A DNA FP -2.4, ALR H2O2 inh 2, FGF22 binding inactive, rRNA inh HTS -1&4, rRNA inh HTS OD600 -3&-1 and rRNA inh HTS RFP 3.8&-1.3.
For COc1cc2cncc(Cc3ccccc3)c2cc1O the results were AF4-AF9 inh -0.1, E coli growth 0.63, HNF4A DNA FP 3.9, FGF22 binding inactive, rRNA inh HTS -2, Vif TR-FRET 0%, rRNA inh HTS OD600 -7 and rRNA inh HTS RFP -0.8.
`O=C(C1CCOCC1)N1CC(=O)N2[C@H](C1)[C@H](c1ccc(/C=C/c3ccccc3)cc1)[C@@H]2CO` gave AF4-AF9 inh 1.4, FGF22 binding inactive, rRNA inh HTS -1, rRNA inh HTS OD600 -3 and rRNA inh HTS RFP -1.8.

In the list so far, these have an aryl methoxy group:
COc1ccc(-c2noc(N3CCCC(C(=O)Nc4ccc(C(C)=O)cc4)C3)n2)cc1 (stereo not drawn) was read as AF4-AF9 inh -1.7, E coli growth 0.7, HNF4A DNA FP 0.2, ALR H2O2 inh -4, FGF22 binding inactive, rRNA inh HTS 6, rRNA inh HTS OD600 12 and rRNA inh HTS RFP 0.4.
For COc1ccc(NC(=O)N2CCCCN3[C@@H](CO)[C@H](c4ccc(C5=CCCCC5)cc4)[C@@H]3C2)cc1 the results were AF4-AF9 inh 21, FGF22 binding inactive, rRNA inh HTS -60, rRNA inh HTS OD600 -70 and rRNA inh HTS RFP -14.
COc1ccc(CC(=O)OCC(=O)NCc2ccc(C)cc2)cc1OC was read as AF4-AF9 inh 0.1, E coli growth 0.71, HNF4A DNA FP 1.5, ALR H2O2 inh -15, rRNA inh HTS -5, Vif TR-FRET -3%, rRNA inh HTS OD600 0 and rRNA inh HTS RFP 3.4.
COc1ccccc1N1CCN(Cc2cc(=O)n3ccsc3n2)CC1 was read as E coli growth 0.64, HNF4A DNA FP -0.1, ALR H2O2 inh 90* and Vif TR-FRET 4%.
COc1ccccc1NCC(=O)N/N=C(\C)c1cccs1 was read as AF4-AF9 inh 2.1, HNF4A DNA FP 1.1, ALR H2O2 inh 30, FGF22 binding inactive, rRNA inh HTS 10, Vif TR-FRET 15%, rRNA inh HTS OD600 10 and rRNA inh HTS RFP 1.7.
For COc1cc2cncc(Cc3ccccc3)c2cc1O the results were AF4-AF9 inh -0.1, E coli growth 0.63, HNF4A DNA FP 3.9, FGF22 binding inactive, rRNA inh HTS -2, Vif TR-FRET 0%, rRNA inh HTS OD600 -7 and rRNA inh HTS RFP -0.8.
